# TRPV1 PAM: HTS Assay for Compounds that Act as Potentiators of the Vanilloid Receptor 1. Transient receptor potential cation channel subfamily V member 1 (Homo sapiens), Q8NER1. TRPV1-expressing cells, Fluo-8 calcium influx, capsaicin EC20 potentiation; host cell line not named in the record; control for the full effect not named in the record. potentiation, % at 8.33 µM. 320,000 compounds, 0.02% hits; active means potentiation above 80%; inconclusive means 30% to 80%; inactive means below 30%; note: 0% is about no effect
# Target sequence (Q8NER1 whole entry, looked up): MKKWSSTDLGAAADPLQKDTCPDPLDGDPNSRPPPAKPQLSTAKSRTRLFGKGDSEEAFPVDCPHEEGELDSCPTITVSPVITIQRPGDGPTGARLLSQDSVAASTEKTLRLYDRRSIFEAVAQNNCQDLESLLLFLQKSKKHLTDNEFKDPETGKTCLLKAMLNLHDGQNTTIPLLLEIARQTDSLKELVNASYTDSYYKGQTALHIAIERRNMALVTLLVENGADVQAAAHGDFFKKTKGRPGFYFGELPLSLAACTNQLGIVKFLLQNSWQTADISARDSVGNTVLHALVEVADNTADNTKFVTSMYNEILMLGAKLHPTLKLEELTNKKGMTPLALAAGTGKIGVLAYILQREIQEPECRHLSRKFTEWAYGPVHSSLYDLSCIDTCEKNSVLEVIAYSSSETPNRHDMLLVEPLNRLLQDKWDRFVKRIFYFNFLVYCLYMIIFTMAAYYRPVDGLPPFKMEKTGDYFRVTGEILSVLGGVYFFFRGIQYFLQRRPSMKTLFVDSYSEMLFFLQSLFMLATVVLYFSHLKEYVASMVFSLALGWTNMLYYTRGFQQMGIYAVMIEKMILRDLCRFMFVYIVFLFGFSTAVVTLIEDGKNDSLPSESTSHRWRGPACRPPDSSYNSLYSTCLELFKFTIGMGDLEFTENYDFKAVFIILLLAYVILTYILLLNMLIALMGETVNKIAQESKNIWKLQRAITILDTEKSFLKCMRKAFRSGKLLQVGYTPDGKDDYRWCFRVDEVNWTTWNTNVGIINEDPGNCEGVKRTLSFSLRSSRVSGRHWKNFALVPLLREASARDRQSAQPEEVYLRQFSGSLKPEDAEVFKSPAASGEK
#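 Fluo-8 calcium influx in TRPV1-expressing cells, kinetic read (ex 480/em 520 nm). Compound added and read 3 min for agonist activity, followed by capsaicin at EC20 final and 2 min further read for enhancement.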
# ClpP mod: qHTS Assay for Activators of ClpP; purified B. subtilis ClpP, FRET peptide cleavage, 20 min; 340,000 compounds, 1.9% hits; Potency, µM (highest dose often 57.5 µM), for inactives: at the top dose activity change, negative = active; active = well fitted falling curve with a large enough effect; inconclusive = small, poorly fitted or top-dose-only effect; inactive = no such curve, though single readings can be large or run the other way; note: potency is the fitted concentration of half-maximal effect; the source files actives as falling curves though it sought activators and does not explain the sign; nearly all actives have a fitted effect of over 65% in size; many hits overshoot -100%
# Target sequence (P80244 whole entry, looked up): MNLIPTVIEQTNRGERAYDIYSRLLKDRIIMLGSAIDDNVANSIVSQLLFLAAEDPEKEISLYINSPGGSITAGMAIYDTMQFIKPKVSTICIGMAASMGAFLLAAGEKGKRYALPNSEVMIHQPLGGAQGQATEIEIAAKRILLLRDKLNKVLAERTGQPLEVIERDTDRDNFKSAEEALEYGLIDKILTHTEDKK
#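 FRET quenching reversal measured ClpP activation: 10 microg/mL B. subtilis ClpP at pH 8 with the FRET-FV decapeptide, read at 430 nm after 320 nm excitation. The 20-min minus 0-min signal was scaled between DMSO/no-enzyme wells and ADEP (5.8 microM final).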
# CtBP-E1A inh: qHTS Assay for Inhibitors of the CtBP/E1A Interaction; CtBP / adenovirus E1A interaction (AlphaScreen); AlphaScreen GST-E1A/His-CtBP binding, 1536-well; stronger effect = lower value; control for the full effect not named in the record; 340,000 compounds, 0.49% hits; activity change, % (concentration not given with the values); in the data active means activity change below about -65%; inconclusive means about -30% to -65%; inactive means above about -30%; note: % is set by controls: 0 for no effect and ±100 for the full control effect
#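 Steps: dispense buffer (Tris pH 8.0, NaCl 300 mM, TCEP 1 mM, BSA, Tween 20); add 5X protein mix (GST-E1A, His-CtBP, 125 nM each); pin 23 nL compound; 2 h at 37 °C, dark; add 5X beads (50 ug/mL); 1 h; read.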
# Menin MLL FP FL: qHTS Assay for Inhibitors Targeting the Menin-MLL Interaction in MLL Related Leukemias: Competition With Fluorescein Labeled MLL-derived Peptide; Fluorescence polarization, fluorescein-MLL peptide displacement from menin; FP activity change, % at 61.4 µM; 290,000 tested, under 10 active; inconclusive = falling polarisation curve, or a change in total fluorescence; inactive = total fluorescence flat and polarisation flat or rising; no compound was filed as active; the % refers to the polarisation; negative = inhibition;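 note: % of control where 0% means no effect; inhibitors lower the polarisation; unlabelled MLL peptide was the positive control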
# gsp antag: qHTS for Antagonists of gsp, the Etiologic Mutation Responsible for Fibrous Dysplasia/McCune-Albright Syndrome: qHTS; gsp-mutant cells, cAMP HTRF, 30 min; control for the full effect not named in the record; Potency, µM (highest dose often 76.9 µM), for inactives: top-dose activity change, negative = inhibition, hits mostly inhibitors; 340,000 compounds, 0.4% hits; AID 624288, 2012; active = falling curve of any shape with a large fitted effect; inconclusive = falling curve, mostly with a smaller effect; inactive = flat or rising curve; cell line not stated here;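 note: intracellular cAMP measured with PDE inhibitor Ro 20-1724 present during compound exposure; potency is the fitted concentration of half-maximal effect; % is set by controls: 0 for no effect and ±100 for the full control effect; nearly all actives have a fitted effect of over 65% in size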
#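 Cells, 2000/well, grown 16–24 h in DMEM 10% FBS with 0.5 mg/ml G418, then compounds plus […] (300 uM addition stock), 30 min at 37C. cAMP read by HTRF (cAMP-d2 and anti-cAMP antibody-K in lysis buffer) after 30 min RT.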
# Sfp PPTase inh: qHTS Assay for Inhibitors of Bacillus subtilis Sfp phosphopantetheinyl transferase (PPTase). Potency, µM, inactives show max response, negative = inhibition, usual class: inhibitors. AID 1490, 2009. 310,000 compounds, 3.5% hits. 4'-phosphopantetheinyl transferase ffp (Bacillus subtilis), Q9F4F7. Biochemical Sfp PPTase activity, qHTS; active = well fitted inhibition curve with a large enough effect; inconclusive = small, poorly fitted or top-dose-only effect, or another doubt; inactive = no such curve, though single readings can be large or run the other way;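 note: the enzyme is Sfp with the accession as filed and its product quenches rhodamine fluorescence; potency is the fitted concentration of half-maximal effect; 0% = enzyme reaction without inhibitor and -100% = no enzyme wells; top concentration of the series not given in the record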
#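 Reaction rates are the 30-min fluorescence difference (ex 525, em 598 nm) in wells containing 15 nM Sfp, 5 uM rhodamine-CoA and 12.5 uM BHQ-2-YbbR at pH 7.6 with 10 mM MgCl2.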
# gsp ag: qHTS for Agonist of gsp, the Etiologic Mutation Responsible for Fibrous Dysplasia/McCune-Albright Syndrome: qHTS. gsp mutant cells, cAMP HTRF, 30 min; control for the full effect not named in the record. 340,000 compounds, 0.13% hits. Potency, µM (doses to about 76.9 µM), without a hit: top-dose activation (cAMP increase), actives largely listed as activators. AID 624287, 2012; active = well fitted activation curve with a large enough effect; inconclusive = small, poorly fitted or top-dose-only effect, or another doubt; inactive = no such curve, though single readings can be large or run the other way; cell line not stated here;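 note: phosphodiesterase inhibitor Ro 20-1724 added with compounds to block cAMP breakdown; potency is the fitted concentration of half-maximal effect; nearly all actives have a fitted effect of over 60% in size; about a fifth of the inactives were tested at one dose only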
#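 Cells stably selected in G418 were plated at 2000/well, grown 16-24 hr, then given compounds in DMSO with the PDE inhibitor […] (300 uM solution added) for 30 min at 37C; cAMP was read by HTRF.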
# * = called active by the depositor; ? = inconclusive; · = no result given; [ ] = another dose, or the depositor's remark.
SMILES,TRPV1 PAM,ClpP mod,CtBP-E1A inh,Menin MLL FP FL,gsp antag,Sfp PPTase inh,gsp ag
C=C1CCC(C)C(C)(CCC2=CCOC2=O)C/C=C\C=C/1C(=O)O (stereo not drawn),5,1.2%,1,5.0,-5%,-2%,-7%
N#CC1=C(N)OC2=C(C(=O)CCC2)[C@]12C(=O)N(CC(N)=O)c1ccccc12,0,0.6%,1,0.4,-11%,12%,1%
CC1(C)C(=O)NCCN1C(=O)CC1C(=O)NCCN1CC(c1ccccc1)c1ccccc1 (stereo not drawn),3,-8.4%,-8,-1.0,0%,16%,1%
COc1ccc(NC(=S)NN2CCOCC2)cc1OC,6,-0.4%,-8,1.4,6%,?,-40%[inhibitor]
Nc1cccc(C(=O)O)c1,4,4.8%,8,1.2,3%,11%,·
Cc1cc(C(=O)N(C)CC(=O)Nc2ccc(Cl)c(C(F)(F)F)c2)no1,-1,-3.1%,-22,·,-1%,·,-5%
COc1cc(/C=C/C(=O)OCC(=O)N2CCc3ccccc3C2)ccc1O,-3,0.6%,5,10,-14%,1%,6%[15.4 µM]
O=C(NCCNc1ccc([N+](=O)[O-])cc1Cl)c1ccccc1F,-5,0.0%,·,3.2,-23%,14%,-32%[inhibitor]
COc1ccccc1NS(=O)(=O)c1ccc(NC(=O)c2nc3ncccn3n2)cc1,-9,0.8%,-13,15,-15%,16%,1%
CN(C)CCCNc1cc(-c2ccccc2)nc2cc(-c3cccc(F)c3)nn12,4,4.4%,·,-4.0,1%,-16%,23%
Cc1ccc(NCc2nnc(SCC(=O)Nc3ncc(C)s3)n2CC2CCCO2)c(C)c1 (stereo not drawn),12,-0.8%,-2,3.7,-15%,-6%,8%
CCCCN(C(=O)c1cc2c(s1)CCCCC2)c1c(N)n(CCC)c(=O)[nH]c1=O,-2,-2.9%,5,·,17%,·,-13%
Cc1c(C(=O)Nc2cccc(F)c2)cnn1-c1ccccc1,14,0.5%,6,3.6,-14%,7%,1%[15.4 µM]
COCCN(Cc1ccccc1)C(=O)Cc1ccc(S(=O)(=O)N2CCOCC2)s1,-15,-0.6%,-9,·,4%,·,12%
CC(C)c1ccc(NC(=O)Cc2ccc(NC3=NC4CS(=O)(=O)CC4S3)cc2)cc1 (stereo not drawn),-10,-3.2%,1,0.4,4%,4%,-28%
CCCCNC(=O)c1cccc(NC(=O)C(=O)c2ccccc2NC(C)=O)c1,0,1.9%,11,-4.5,26%,20%,-2%
COc1cc(S(=O)(=O)NC2CCCCC2)ccc1F,20,0.5%,48,-1.7,18%,11%,33%
CN=C(Nc1cccc(S(=O)(=O)N2CCOCC2)c1)c1ccccc1,·,2.5%,·,·,-2%,·,8%
Cc1cc(OCC(=O)c2ccc(Br)cc2)ccc1N1C(=O)CCC1=O,5,0.2%,3,-3.4,3%,-2%,20%
O=C(CNC(=O)c1ccc(-c2ccccc2)cc1)OCc1ccc(Cl)cc1,13,-2.0%,10,-2.1,3%,23%,-12%
Cc1cc(Br)cnc1NC(=S)Nc1ccc(F)cc1F,-7,·,0,-1.4,-13%,1%,7%
O=C1CC(NCc2ccccc2F)C(=O)N1c1ccccc1 (stereo not drawn),13,-1.3%,-7,-6.3,-5%,16%,23%
CC(Oc1ccccc1)C(=O)Nc1ccccc1O (stereo not drawn),-4,-2.2%,3,-2.2,1%,16%,-33%[inhibitor]
OC1CCCN(C(=S)Nc2ccc(SC(F)F)cc2)C1 (stereo not drawn),-20,?,6,2.3,0%,22%,12%[15.4 µM]
O=C(Nc1ccc2c(c1)OCO2)C1CCCN1C(=O)NCc1ccccc1 (stereo not drawn),-1,0.2%,4,0.5,8%,16%,?
CCCCn1c(N)c(N(Cc2ccccc2OC)C(=O)c2c(CC)noc2C)c(=O)[nH]c1=O,24,49%,12,·,6%,5%,11%[15.4 µM]
O=C(N/N=C/c1ccc2cccnc2c1)c1nc2ccccc2c(=O)[nH]1,2,·,-8,0.6,0%,2%,-41%[15.4 µM]
COc1ccc(CCn2c3c(c(=O)[nH]c2=O)C(NC(=O)c2cccs2)(C(F)(F)F)C(=O)N3)cc1OC (stereo not drawn),-2,3.9%,7,3.4,-3%,16%,0%
COc1cccc(NC(=O)CSc2nnc(-c3ccoc3C)n2CC2CCCO2)c1 (stereo not drawn),2,0.0%,-2,0.9,6%,1%,-19%
N#CCCN(Cc1cccnc1)S(=O)(=O)c1ccc(S(=O)(=O)N2CCCCCC2)cc1,-10,-0.1%,0,-0.3,-20%,11%,11%
O=C(CC(NCCN1CCOCC1)C(=O)O)Nc1cccc(Cl)c1 (stereo not drawn),·,·,-5,·,-2%,·,-11%[15.4 µM]
COc1cccc(-c2nnc(NC(=O)C(C)C)o2)c1,3,?,-1,4.7,1%,13%,9%
Cn1c(=O)c(=O)n(C)c2cc(S(=O)(=O)CCC(=O)N3CCOCC3)ccc21,?,-22%,3,0.2,10%,20%,?
O=C(COC(=O)C1CCCCC1)Nc1cccc(F)c1,·,·,11,·,10%,·,-13%
CCN(CC)CCN1C(=O)/C(=C\c2ccc(Cl)c([N+](=O)[O-])c2)SC1=Nc1ccc(OC)cc1,-2,·,-21,1.7,-20%,45µM*,-1%
COc1cc(OC)c(OC)cc1/C=N/NC(=S)NCCN1CCOCC1,-2,·,-20,-0.9,·,-83%,1%[15.4 µM]
COCCNC(=O)c1ccc2c(=O)n(Cc3ccco3)c(SCC(=O)Nc3ccc(OC)cc3OC)nc2c1,?,2.4%,-3,-1.7,-3%,-2%,4%
O=C(N/N=C/c1cccs1)c1ccc2c(c1)OCO2,1,2.7%,-5,0.1,-9%,18%,28%
COc1ccc(CCNC2=C(Cl)C(=O)N(Cc3ccccc3)C2=O)cc1OC,14,·,-11,8.2,?,?,13%
CCCC#Cc1ccc2c(c1)O[C@H](CN(C)S(=O)(=O)c1cccc(OC)c1)[C@H](C)CN([C@H](C)CO)S2(=O)=O,·,-2.7%,1,·,·,·,23%
CCOc1ccc(NC(=O)CN(C)C(=O)Cc2c(C)nc3ccccc3c2C)cc1OCC,-5,-4.8%,-1,·,-1%,-1%,8%[15.4 µM]
CN(C)/C=C1\C(=O)N(c2ccc(Oc3ccccc3)cc2)CS1=O (stereo not drawn),8,-1.8%,3,8.3,2%,8%,-33%[inhibitor]
CCN(CC)C(CNC(=O)c1cc(=O)[nH]c2ccccc12)c1ccccc1Cl (stereo not drawn),-6,·,2,·,4%,7%,20%[15.4 µM]
CCOc1ccc(N2C(=O)CN=C2Nc2ccccc2Cl)cc1,2,-1.2%,5,0.1,3%,3%,-6%
COCCCNc1oc(COc2ccc(Cl)cc2Cl)nc1C#N,·,-2.8%,-7,8.6,0%,-7%,-22%
Nc1c(Br)cc(Br)c2c1-c1ccc([N+](=O)[O-])cc1C2,·,-2.3%,-19,·,-2%,·,21%
CCCCN(Cc1ccccc1)C(=O)C1CCCN(S(=O)(=O)c2cnc[nH]2)C1 (stereo not drawn),-15,1.1%,-2,5.1,-3%,4%,-1%
O=C(NCC(c1ccco1)N1CCc2ccccc2C1)c1ccccc1Cl (stereo not drawn),-19,-4.2%,-16,·,6%,·,-13%

# Some values from the list:
# CCN(CC)C(CNC(=O)c1cc(=O)[nH]c2ccccc12)c1ccccc1Cl (stereo not drawn) in TRPV1 PAM reads -6
# CCOc1ccc(N2C(=O)CN=C2Nc2ccccc2Cl)cc1 in gsp ag reads -6%

# Next records follow.
SMILES,TRPV1 PAM,ClpP mod,CtBP-E1A inh,Menin MLL FP FL,gsp antag,Sfp PPTase inh,gsp ag
CCOc1c(O)ccc(/C=C2\SC(=S)NC2=O)c1[N+](=O)[O-],6,·,-20,13,?,11µM*,-10%
O=C(CCn1c2c(c3ccccc31)CCCC2)NNC(=O)c1ccccc1C(=O)O,-5,-2.1%,-21,3.2,-23%,12%,11%
Cc1ccc(S(=O)(=O)N2CCC(C(=O)N/N=C/c3ccccc3[N+](=O)[O-])CC2)cc1,2,-1.2%,-16,0.8,?,12%,-15%
COC(=O)c1sccc1N(C)S(C)(=O)=O,-1,·,-22,1.2,14%,7%,-39%[inhibitor]
Cc1nc(Nc2ccc(F)cc2)[nH]c(=O)c1CCC(C)C,14,-4.5%,7,1.5,-18%,-1%,-10%
O=S(=O)(NCC1CCCO1)c1cc(Br)c(Br)s1 (stereo not drawn),-17,-1.1%,0,-1.9,-3%,-3%,27%
Fc1cccc(Cc2noc(CN3CCN(C4CCc5ccccc5C4)CC3)n2)c1 (stereo not drawn),1,·,-8,-5.4,?,7%,5%[15.4 µM]
CNC(=O)c1cc(C(=O)c2ccc(F)cc2Cl)c[nH]1,-3,-1.1%,·,0.9,-4%,2%,11%
Cc1nc(/N=C(\N)NC(=O)NC2CCCCC2)nc2ccccc12,2,·,-11,-2.4,-29%,?,10%[15.4 µM]
COc1cc2c(cc1OC)C(C(C)C)=NC(C)(C)C2,-1,16%,-3,0.7,4%,-12%,6%
Cc1ccc(/C=N/N(C)C2=NS(=O)(=O)c3ccccc32)cc1,-2,·,-11,-0.3,8%,15%,0%
Cc1cc(N2CCOCC2)nc(SCc2ccc(Cl)cc2Cl)n1,-4,-5.0%,8,6.9,-7%,10%,-1%
CCN(CC)S(=O)(=O)c1cccc(C(=O)NC(C(=O)Nc2nnc(C)s2)C(C)C)c1 (stereo not drawn),6,-1.1%,7,0.4,-3%,-6%,?
Cc1nn(-c2ccccc2)c(C)c1/C=N/NC(=O)c1cc(O)cc(O)c1,-1,0.9%,?,1.2,5%,6%,28%

# Hits appear at their usual frequency; about 5.3% have a hit in one of these screens.
